Mtb bLac sens: beta-lactam sensitization of Mtb H37Rv; M. tuberculosis H37Rv growth with meropenem, percent inhibition; hits of this screen are not shown here; inhibition, % at 25 µM; 330,000 compounds, 0.27% hits; AID 434955;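 active = about 74% or more and at least 40 points above the plate without the antibiotic, then above 30% in a dose series; inconclusive = first-round hits that could not be retested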;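 note: growth measured after seven days incubation then overnight dye step; 0% = bacteria only wells and 100% = bacteria with antibiotic; twin plates without the antibiotic show which effects depend on it; some results filed as inactive read as strong as hits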
RecA intein inh: inhibitors of M. tuberculosis RecA intein splicing | cell-free RecA intein splicing, fluorescence | P9WHJ3 | inhibition, %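 (about 9 µM by stock and volumes)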 | AID 2221 | 290,000 compounds, 0.75% hits; in the data active = inhibition above about 30%; inconclusive = no clear call, values can overlap the other calls;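 note: 0% = vehicle wells and 100% = reference inhibitor control wells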
Target sequence (P9WHJ3 whole entry, looked up): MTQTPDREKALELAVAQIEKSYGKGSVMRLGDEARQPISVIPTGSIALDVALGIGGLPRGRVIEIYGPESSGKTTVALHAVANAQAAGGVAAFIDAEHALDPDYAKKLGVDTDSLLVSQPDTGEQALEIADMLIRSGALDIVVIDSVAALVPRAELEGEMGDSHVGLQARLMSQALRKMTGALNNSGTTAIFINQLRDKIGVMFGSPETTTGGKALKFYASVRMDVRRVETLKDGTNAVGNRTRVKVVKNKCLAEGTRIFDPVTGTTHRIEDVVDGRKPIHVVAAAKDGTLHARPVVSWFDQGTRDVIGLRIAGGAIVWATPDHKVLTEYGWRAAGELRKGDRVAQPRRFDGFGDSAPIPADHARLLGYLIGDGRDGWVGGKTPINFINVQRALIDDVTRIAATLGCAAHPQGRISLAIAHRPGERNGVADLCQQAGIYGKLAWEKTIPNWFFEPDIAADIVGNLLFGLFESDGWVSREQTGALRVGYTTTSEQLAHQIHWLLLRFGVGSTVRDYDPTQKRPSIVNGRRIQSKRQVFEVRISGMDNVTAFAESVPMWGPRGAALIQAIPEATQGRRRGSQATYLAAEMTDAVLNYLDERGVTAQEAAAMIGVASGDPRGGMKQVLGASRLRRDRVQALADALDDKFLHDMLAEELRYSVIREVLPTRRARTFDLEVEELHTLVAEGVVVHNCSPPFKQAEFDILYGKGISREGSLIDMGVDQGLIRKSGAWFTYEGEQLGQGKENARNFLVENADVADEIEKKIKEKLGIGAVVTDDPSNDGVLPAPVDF
YopH PTP inh: YopH (Yersinia) phosphatase inhibition | inhibition, %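 (about 10 µM by stock and volumes)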 | AID 898 | fluorescence Ex485/Em525 | 140,000 compounds, 0.16% hits;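 active = inhibition of 50% or more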;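 note: controls were vehicle for no effect and minimum signal wells for full effect; inactives centre near -20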
Mtb growth: M. tuberculosis H37Rv growth inhibitors, H37Rv strain (AID 1626) | inhibition, % at 10 µM, or IC50 in µM where a hit was titrated | M. tuberculosis H37Rv growth inhibition; higher % means a stronger effect | 220,000 compounds, 0.95% hits;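 active = confirmed in a dose series; inconclusive = inhibition above 80% but not taken into the dose series; inactive = below 80% or under 30% at every dose of the series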;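 note: bacteria incubated seven days before Alamar blue readout; 0% = bacteria only wells and 100% = bacteria with antibiotic wells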
Arbovirus inh: antivirals against arbovirus infection; 200,000 compounds, 0.37% hits; arbovirus infection cell-based antiviral screen; inhibition, % at 10 µM; AID 1251;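 active = inhibition from about 30%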;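 note: bluetongue infection of BSR cells; cell survival read as ATP light after 72 h; 0% = infected wells without compound and 100% = uninfected wells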
Arbovirus inh repeat: further read-out of Arbovirus inh, marked with its call; inhibition, %; measured here: 10K subset replicate screen; many hits read low in the repeat;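 first of two repeat runs on a subset; 0% = infected and 100% = uninfected wells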
* hit, by the source's call; ? = inconclusive; / = not tested or not shown.

SMILES	Mtb bLac sens	RecA intein inh	YopH PTP inh	Mtb growth	Arbovirus inh	others
CCOc1ccc(/C=c2\sc3nc(-c4ccco4)nn3c2=O)cc1OCC	95	-19	-19	0%	7
CN1/C(=C\C=C\C2=[N+](C)c3ccc4ccccc4c3C2(C)C)C(C)(C)c2ccccc21	62	/	0	78%	-30
CCCCNC(=S)NCC(c1ccccc1)c1c[nH]c2ccccc12 (centres undefined)	-5	-1.6	/	/	/
O=C(Nc1ccccc1C(=O)NCC1CCCO1)c1ccccc1 (centres undefined)	-15	-0.4	-28	-6%	-16
Cc1cc(C)c2c(CN3CCN(Cc4ccc5c(c4)OCO5)CC3)cc(=O)oc2c1	91	1.3	-64	23%	6
CC1(C)CC(=O)C(/C=N/c2ncccc2C(=O)O)=C(O)C1	3	1.6	-8	-8%	4
Cc1ccc(Cn2c(=N)c(C(=O)NCC3CCCO3)cc3c(=O)n4cccc(C)c4nc32)cc1 (centres undefined)	1	-2.0	/	/	/
CCN(CC)S(=O)(=O)c1ccc2c(c1)nc(CCC(=O)Nc1ccc3c(c1)OCO3)n2CC	-1	4.0	4	17%	-8
Cc1cccc(-n2c(C)cc(/C=N\NC(=O)c3ccco3)c2C)c1	-7	-0.4	/	7%	-3
O=C(NCC(=O)N1CCCC1C(=O)O)OC1CCCCC1 (centres undefined)	-6	-1.6	-27	-8%	-1
Cc1cccc(NC(=O)CCCn2cc([N+](=O)[O-])cn2)n1	60	-3.0	/	-10%	5
Cc1cc(C(=O)NC2CCCc3c2cnn3-c2ccc(C)c(C)c2)no1 (centres undefined)	2	-0.5	/	/	/
CCOc1ccc(N(CC(=O)Nc2cccnc2)S(C)(=O)=O)cc1	2	-4.8	/	-10%	14
C=CCC(C(=O)NC(C)c1ccccc1)C(=O)NC(C)c1ccccc1 (centres undefined)	-4	2.8	/	/	/
COc1ccc(N2C(=O)CC(NNC(=O)c3ccco3)C2=O)cc1 (centres undefined)	-1	-2.4	/	2%	9
COC(=O)c1ccc(CSc2nc(-c3ccco3)cc(C(F)(F)F)n2)o1	3	0.2	-35	7%	-11
O=C(Cc1ccccc1[N+](=O)[O-])N1CCc2ccccc2C1	-6	0.5	/	-4%	-1
COc1cccc(N2CCN(C3CC(=O)N(c4cccc(Cl)c4)C3=O)CC2)c1 (centres undefined)	2	0.9	-24	-21%	9
Cc1ccc(C(=O)O/N=C2\CC3CCC2(C)C3(C)C)cc1 (centres undefined)	0	7.2	-1	-2%	-1
Cc1ccc(Nc2nc(N)nc(CCl)n2)c(C)c1	99	6.3	/	16%	/
N/C(=N\OC(=O)c1ccc(Cl)cc1Cl)c1ccncc1	-3	3.2	/	-5%	/
Cc1cc(=O)cc(C)n1-c1ccccc1N1CCOCC1	1	2.8	12	-5%	-3
OC(COc1ccc(F)cc1Cl)CN1CCc2ccccc2C1 (centres undefined)	8	1.9	/	/	/
O=S(=O)(NCc1csc(-c2cccnc2)n1)c1ccc(Cl)s1	-5	1.7	-49	13%	-4
Cc1cccc(NC(=O)c2ccc(S(=O)(=O)N(C)C)cc2)n1	-3	4.8	31	3%	4
C=CCNC(=O)C1CCN(S(C)(=O)=O)CC1	-5	-2.1	-24	-4%	-3
Oc1c(C=C2N=c3ccccc3=N2)sc(=S)n1-c1ccc2ccccc2c1	-7	2.8	/	-4%	/
O=C(NCCC1=CCCCC1)Nc1ccc2nsnc2c1	3	-0.4	/	0%	-7
CC(C)(C)c1cc(CSC(=S)NC2CCS(=O)(=O)C2)c(Br)c(C(C)(C)C)c1 (centres undefined)	7	0.8	/	3%	-32
Cc1nonc1OCCN1CCN(c2ccccc2[N+](=O)[O-])CC1	-2	0.3	/	2%	-1
CCC(=O)Nc1cc(-c2cc3ccccc3oc2=O)ccc1OC	1	-0.1	/	7%	6
CCCNC(=O)Cn1c(-c2ccc(F)cc2)cc(C(=O)OCC)c1C	5	/	/	2%	-1
O=C(COC(=O)Cc1ccccc1F)Nc1cccc(F)c1	-14	-1.7	/	-3%	3
CC1(C)Cc2c(sc(NC(=O)C(=O)NCC3CCCO3)c2C(N)=O)CO1 (centres undefined)	-1	2.5	/	/	/
COC(=O)c1c(NC(=O)CCCC(=O)O)sc2c1CCC2	2	-0.8	-14	-12%	8
Cc1cc(=O)oc2cc(OC(=O)C3CCN(C(=O)c4ccc(F)cc4)CC3)ccc12	0	-3.7	/	/	/
CC1(C(=O)NCC2CCCO2)Oc2cccnc2NC1=O (centres undefined)	11	2.3	/	3%	2
CCN(CC)CCN1C(=O)C2C(C(=O)Nc3cccc(C)c3)C3C=CC2(O3)C1C(=O)NC1CCCC(C)C1C (centres undefined)	0	3.2	/	/	/
COc1ccc2nc(Nc3nc(CSc4ccc(C)cc4)cc(=O)[nH]3)nc(C)c2c1	5	0.6	/	6%	-15
O=C(Nc1ccc(-c2csc(Nc3ccccc3)n2)cc1)c1cc([N+](=O)[O-])cc(C(F)(F)F)c1	48	-0.7	/	50%	/
CCC(C(=O)NC(C)CCc1ccco1)n1nc(C)n2c(cc3occc32)c1=O (centres undefined)	-4	4.1	-28	-2%	-10
Cc1ccc(C2=NCC(=O)N(CC(=O)N3CCCCC3)c3sc(C)c(C)c32)cc1	-1	1.2	18	-3%	-14
S=c1[nH]nc(C23CC4CC(CC(C4)C2)C3)n1Cc1ccco1	-2	4.2	-37	-19%	-8
Cc1ccc(C)c(N(CC(=O)NC2CCCC2)C(=O)c2cc3cc4cc(C)ccc4nc3s2)c1	1	1.0	-51	2%	2
O=S(=O)(NCCCN1CCN(c2ccccc2F)CC1)c1cccc2cccnc12	2	/	-40	-17%	7	Arbovirus inh repeat=3

Pulled by structure from above, 2 records:
SMILES	Mtb bLac sens	RecA intein inh	YopH PTP inh	Mtb growth	Arbovirus inh	others
Cc1ccc(C2=NCC(=O)N(CC(=O)N3CCCCC3)c3sc(C)c(C)c32)cc1	-1	1.2	18	-3%	-14
S=c1[nH]nc(C23CC4CC(CC(C4)C2)C3)n1Cc1ccco1	-2	4.2	-37	-19%	-8

Further entries
SMILES	Mtb bLac sens	RecA intein inh	YopH PTP inh	Mtb growth	Arbovirus inh	others
O=c1oc2ccccc2cc1-c1csc(Nc2nc3ccc(F)cc3s2)n1	4	-2.4	-27	-1%	8
Cc1cccc(C(=O)NC(=S)Nc2ccc(S(=O)(=O)N3CCN(C)CC3)cc2)c1	-6	1.4	-5	6%	4
COc1c(Cl)cc(Cl)cc1CNCCNCCO	3	4.1	-33	-7%	-1
COc1cccc(N2C(=O)CC(N3CCN(S(=O)(=O)c4ccccc4)CC3)C2=O)c1 (centres undefined)	-5	-2.5	-12	-4%	5
CCOC(=O)C1CCCN(C(=O)/C=C/c2ccc(Cl)cc2)C1 (centres undefined)	12	0.8	/	-2%	0
COc1ccc(CC(=O)NC(CC(=O)O)c2ccc(OC)cc2)cc1 (centres undefined)	-8	-1.0	-46	-2%	5
CN(C)c1ncc(S(=O)(=O)c2ccccc2)c(-c2ccc(Cl)cc2Cl)n1	8	2.5	-25	/	-12
Cc1cccc(C)c1NC(=O)CCCN1C(=O)C(c2ccccc2)Oc2cccnc21 (centres undefined)	3	1.1	/	/	/
Cc1ccc(NC(=O)CSc2nc(C)c(Cc3ccccc3)c(=O)[nH]2)cc1C	0	-1.9	/	-1%	9
O=C(O)CCC(=O)/C=C/c1ccccc1	0	-1.5	/	-6%	0
Cc1ccc(OCC(=O)Nc2ccc3c(c2)nc2n3CCOC2)cc1	-14	1.3	-36	-5%	-2
COC(=O)C1Cc2c([nH]c3ccccc23)CN1C(C)=O (centres undefined)	-3	-2.3	/	/	/
CCn1cc(C(=O)NCCCN2CCCC(C)C2)c(=O)c2cc(S(=O)(=O)N(C)C3CCCCC3)ccc21 (centres undefined)	-1	1.0	/	/	/
COc1ccc(OC)c(N(C)S(=O)(=O)c2ccc3c(c2)N(C(C)=O)CCO3)c1	5	-0.5	/	/	/
Cn1c(=O)n(C)c2cc(N3CCCC3)c(NC(=O)c3cccc(F)c3)cc21	6	-3.4	/	/	/
O=C(Nc1ccccc1)C1COc2ccccc2O1 (centres undefined)	-22	-0.6	/	/	/
CCCS(=O)(=O)N1CCCC(C(=O)NCCN2CCOCC2)C1 (centres undefined)	-3	1.6	-23	-7%	2
Cc1cc(NC(=O)CSc2nnc(COc3cccc(C)c3C)n2Cc2ccco2)no1	22	4.4	-17	-9%	7
CCOc1ccc(CC(=N)C2=C(O)CC(C)(C)CC2=O)cc1OCC	7	-2.3	-7	-4%	-5
CCOc1ccc(/C=N/NC(=O)c2cc3ccccc3cc2OC)cc1	0	0.9	/	/	/
COc1ccc(Nc2ncnc3sc(C)cc23)c(OC)c1	-5	-1.7	/	/	/
O=C(CSc1nnc2scc(-c3ccccc3)n12)c1ccc2c(c1)OCCO2	?	0.3	/	-2%	2	Arbovirus inh repeat=-2
CCOCCNC(=O)c1ccc2c3c(cccc13)CC2	50	-1.5	-25	-11%	-2
Cc1cc(NCC(C)C)n2ncnc2n1	1	2.5	-6	-8%	-1
COC(=O)C1(C#N)C(c2ccccc2)C1(C(=O)OC)C(=O)OC (centres undefined)	-6	0.8	-13	/	13	Arbovirus inh repeat=0
c1ccc2c(c1)oc1c(Nc3ccc4c(c3)OCCO4)ncnc12	-2	1.2	-33	4%	4
COC(=O)C1=C(C)NC(C)=C(C(=O)OC)C1c1ccco1	1	-0.9	/	-1%	/
Cc1cc2c(cc1C)/C(=N/NC(=O)c1ccccn1)CCC2	99	3.8	/	36%	/
O=C(NCC(=O)N1CCCCCC1)c1ccc(OC(F)F)cc1	-2	-1.0	/	/	/
O=S(=O)(Nc1cccnc1Cl)c1ccc2c(c1)OCCO2	1	-0.8	-46	-6%	3

Grouped by structure, those above with an NH in an aromatic ring.
SMILES	Mtb bLac sens	RecA intein inh	YopH PTP inh	Mtb growth	Arbovirus inh	others
CCCCNC(=S)NCC(c1ccccc1)c1c[nH]c2ccccc12 (centres undefined)	-5	-1.6	/	/	/
COc1ccc2nc(Nc3nc(CSc4ccc(C)cc4)cc(=O)[nH]3)nc(C)c2c1	5	0.6	/	6%	-15
S=c1[nH]nc(C23CC4CC(CC(C4)C2)C3)n1Cc1ccco1	-2	4.2	-37	-19%	-8
Cc1ccc(NC(=O)CSc2nc(C)c(Cc3ccccc3)c(=O)[nH]2)cc1C	0	-1.9	/	-1%	9
COC(=O)C1Cc2c([nH]c3ccccc23)CN1C(C)=O (centres undefined)	-3	-2.3	/	/	/

Remaining list, next part
SMILES	Mtb bLac sens	RecA intein inh	YopH PTP inh	Mtb growth	Arbovirus inh	others
CCOc1ncccc1C(=O)OCC(=O)c1ccc(OC)c(OC)c1	7	8.1	/	-3%	0
Cc1nn(CC(=O)Nc2ccc(Cl)cc2Cl)c(=O)c2ccccc12	3	-5.0	/	/	/
C/C=C(\C)C(=O)N[C@@H](c1ccccc1)[C@@H](O)C(=O)O[C@H]1C[C@@]2(O)[C@@H](OC(=O)c3ccccc3)C3[C@](C)(C(=O)[C@H](O)C(=C1C)C2(C)C)[C@@H](O)C[C@H]1OC[C@@]31OC(C)=O (some centres undefined)	-4	1.1	/	/	/
Cc1nnc(NC(=O)CSc2nnc(-c3ccc(S(=O)(=O)N4CCCC4)cc3)n2C)s1	-5	-0.8	33	-8%	-5
CCN(CC)C(=O)CSc1nnc(-c2ccc(S(=O)(=O)N3CCCC3)cc2)o1	-22	/	-31	-10%	11
COc1ccc(/C=N/n2c(C)nc3sc(C)c(C)c3c2=O)cc1	-6	-0.7	/	-4%	/
CC(C)(C)N1C(=O)[C@H]2[C@@H](c3ccc(Br)cc3)N3C(=O)N(c4cccc(Cl)c4)C(=O)[C@@]3(Cc3ccccc3)[C@H]2C1=O	0	5.9	/	/	/
CCN(CC)c1ccc(S(=O)(=O)N2CCOCC2)cc1NC(=O)CSc1nnc(N)s1	-4	-2.9	/	/	/
CCCc1nc(N)sc1C(=O)OCC	-9	0.8	-23	-2%	9
C=CCSC1=C(C#N)C(c2ccccc2OCC)C(C#N)C(=O)N1 (centres undefined)	11	-3.9	-16	14%	-3
Cc1nnc(SCC(=O)N(C)CC(=O)Nc2ccc(F)cc2)n1Cc1ccccc1	-4	-1.3	/	-1%	5
Nc1c(C(=O)c2ccc(F)cc2)oc2ccccc12	29	-0.7	-30	7%	5
CCOC(=O)c1cc(-c2ccccc2)sc1NC(=O)C(C)(C)C	-5	-0.7	-43	-11%	-10
CCN1C(Nc2ccccc2)=NC[C@@H]1CC(C)C	-5	-1.2	/	/	/
CC(C)CC(=O)Nc1ccc(C(=O)COC(=O)C2CCC2)cc1	-6	-0.9	/	/	/
CSc1ncc(C(=O)Nc2cc(C)ccc2C)c(C)n1	89	-0.7	/	/	/
Cc1ccc(NC(=O)Cn2c(O)c(N=NC(N)=O)c3ccccc32)cc1	-2	-0.1	/	-9%	/
CC1CCCCN1Cc1c(O)ccc2c(=O)c(-c3ccc(Cl)cc3Cl)coc12 (centres undefined)	-8	-3.7	/	/	/
OCC1CCCCN1C(=S)Nc1cccc(Cl)c1 (centres undefined)	-8	-4.6	/	-1%	0

The list is partial; rates above refer to the full screens.
